Beta2AR agonist = beta2AR agonists driving receptor internalization, primary screen, cell-based, FAP fluorogen, flow cytometry | Am2.2-beta2AR cells; reference of the scale not given here | response, % (test concentration not listed) | 340,000 tested, 0.43% active;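 active means response above a set limit, near 3 SD of response in nonfluorescent compounds, cut at about 42% in these data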;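 further: stock transfer was 100 nL into about 11 µL; a reference agonist was the positive control; negative values mostly stem from fluorescent compounds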
Target sequence (P07550 whole entry, looked up): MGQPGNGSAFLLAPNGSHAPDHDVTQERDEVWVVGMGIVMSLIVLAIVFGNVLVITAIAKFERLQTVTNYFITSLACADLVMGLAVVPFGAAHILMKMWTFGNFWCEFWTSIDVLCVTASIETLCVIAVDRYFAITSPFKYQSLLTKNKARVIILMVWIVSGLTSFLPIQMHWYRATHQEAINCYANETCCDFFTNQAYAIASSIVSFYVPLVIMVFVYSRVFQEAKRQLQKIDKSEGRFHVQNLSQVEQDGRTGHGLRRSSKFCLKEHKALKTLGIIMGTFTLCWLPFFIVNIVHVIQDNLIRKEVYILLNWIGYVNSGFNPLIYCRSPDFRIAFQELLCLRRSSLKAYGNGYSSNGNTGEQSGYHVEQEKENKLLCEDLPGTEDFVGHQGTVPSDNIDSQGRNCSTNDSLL
UCH37 DUB inh = inhibitors of human UCH37 deubiquitinase, primary screen, biochemical, Ub-AMC cleavage, fluorescence; purified proteasome/UCH37; inhibition, % (test concentration not listed); 330,000 tested, 0.33% active;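 active means mean of two replicates above 20%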;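 further: 0% = compound-free wells with enzyme and 100% = wells lacking proteasome; stock transfer was 100 nL into about 20 µL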
Target sequence (Q9Y5K5 whole entry, looked up): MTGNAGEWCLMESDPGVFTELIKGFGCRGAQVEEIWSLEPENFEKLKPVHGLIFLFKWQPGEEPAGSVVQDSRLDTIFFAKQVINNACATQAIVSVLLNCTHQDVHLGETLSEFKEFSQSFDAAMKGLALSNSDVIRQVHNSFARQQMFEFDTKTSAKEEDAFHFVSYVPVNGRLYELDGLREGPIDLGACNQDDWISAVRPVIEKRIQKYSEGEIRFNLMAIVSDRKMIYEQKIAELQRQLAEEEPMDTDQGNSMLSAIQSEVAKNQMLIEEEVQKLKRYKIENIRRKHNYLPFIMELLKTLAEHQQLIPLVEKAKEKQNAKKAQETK
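system = Proteasome-associated human UCH37 deubiquitinase | amount = 0.15 nM proteasome as dispensed | medium = pH 7.4 Tris-HCl (50 mM) with ovalbumin, ATP-MgCl2, DTT | incubation = 30 min preincubation with enzyme, 25 min cleavage at room temperature | detection = AMC fluorescence 355/460 nm | read-out basis = percent inhibition | controls = no-proteasome and no-compound wells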
Calb FLC = C. albicans growth inhibition with fluconazole, primary screen, CaCi-2 strain, Alamar Blue fluorescence; 300,000 tested, 0.57% active; AID 1979, 2009; C. albicans CaCi-2 (fluconazole-resistant clinical isolate) + fluconazole, 48 h; growth inhibition, % (concentration not given with the values);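 active means most replicates above 75%; inconclusive means exactly half above 75%; inactive means most below 75%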;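 further: all wells also contain fluconazole at 8 µg/ml as a sub-toxic cotreatment; 0% = median of DMSO wells and 100% = median of geldanamycin control wells; wells of about 8 µL received 7.5 nL stock; the first replicate is given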
Beta cell apopt = inhibitors of cytokine-induced beta cell apoptosis, primary screen, luminescence | INS-1E cytokine-induced death, ATP luminescence, 48 h; percent of positive-control rescue, neutral wells zero | protection from apoptosis, % (concentration not given with the values) | 300,000 tested, 0.8% active | AID 435005, 2010;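 active means all replicates at 75% or more, or half of them and the mean; inconclusive means half reach 75% but not the mean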;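 further: 0% = cytokine-treated negative control wells and 100% = positive control rescue; higher means more ATP so stronger rescue from cytokine killing; wells of about 40 µL received 100 nL stock; the first replicate is given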
T cruzi repl = inhibitors of intracellular T. cruzi growth, primary screen, luminescence, NIH3T3 host cells. T. cruzi beta-gal in NIH3T3, 90 h. inhibition, % (test concentration not listed). 300,000 tested, 1.4% active. AID 1885, 2009;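 active means mean inhibition across valid replicates above about 55%, limit read from the data; inconclusive means mean below that limit but half or more replicates reach it; inactive means mean below it, under half of replicates reach it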;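 further: signal also drops with host cell toxicity which is not excluded here; 0% = plate median of DMSO wells and 100% = zero luminescence signal; higher percent means less beta-gal luminescence so fewer parasites; stock transfer was 50 nL into about 50 µL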
LANA-H2A inh = blockers of LANA interaction with H2A/H2B – biochemical, FP readout, HTS, primary screen | AID 2629, 2010 | 320,000 tested, 0.6% active | Protein LANA1 (Human herpesvirus 8 type P (isolate GK18)), Q9QR71 | cell-free LANA-H2A/H2B peptide, fluorescence polarization | inhibition, % (test concentration not listed); in the data active means inhibition mostly above about 10%, no sharp cut-off; inactive means mostly below about 6.7%;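 further: stock transfer was 7.5 nL into about 10 µL; 0% = median of vehicle wells and 100% = median of positive control wells; one replicate is shown; the record names a cut of 25% in any replicate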
RanGTP-Imp inh = inhibitors of RanGTP-importin-beta interaction, primary screen, biochemical, FRET, CFP-Ran, YFP-importin-beta, homogeneous | Ran GTPase (GTP-bound) - importin-beta complex | cell-free CFP-Ran/YFP-importin-beta FRET ratio | inhibition, % (test concentration not listed) | 300,000 tested, 1.1% active;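 active means most replicates above 15%; inconclusive means exactly half above 15%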;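 further: 0% = DMSO wells and 100% = Ran loaded with GDP instead of GTP; wells of about 40 µL received 100 nL stock; the first replicate is given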
A1 inh = caspase 3/7 activation in MEF A1-2A-BIM cells, primary screen, A1 inhibitor project, cell-based, luminescence, HTS; Caspase-Glo 3/7 luminescence, 3 h; percent of clofoctol response, vehicle zero; caspase activation, % (no concentration beside the values); 330,000 tested, 0.066% active; AID 2462, 2010;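 active means over half of replicate activation scores above 10%, or exactly half above 10 with the replicate mean above 10; inconclusive means replicate mean below 10 yet half the replicates above 10; inactive means over half of replicates below 10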;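 further: wells of about 30 µL received 50 nL stock; many hits fall short of the cut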
Starred values were filed as active, the others as inactive; u = inconclusive; x = not tested or not shown.

SMILES	Beta2AR agonist	UCH37 DUB inh	Calb FLC	Beta cell apopt	T cruzi repl	LANA-H2A inh	RanGTP-Imp inh	A1 inh
CCn1nc(C)c(CN2CCC(n3nccc3NC(=O)c3ccccc3OC)CC2)c1C	-7.8	0.2	-0.9	-5.4	17.0	1.9	1.1	-1.0
Cc1ccccc1OCCCc1c(C)n[nH]c1C	0.3	3.7	-6.3	4.1	-9.8	5.3	-1.1	0.6
c1ccc2c(c1)Cc1cc(CN3CCOCC3)ccc1-2	-5.2	2.7	0.5	0.1	23.4	1.8	-4.5	0.8
COC(c1ccccc1)c1nnc(CCC(=O)N2CCN(C3CCCC3)CC2)o1 (stereo not given)	1.7	0.6	3.6	-0.8	-3.6	1.8	7.6	1.3
S=C1NC(C23CC4CC(CC(C4)C2)C3)=CC(c2ccc3c(c2)OCO3)N1 (stereo not given)	-5.9	x	-5.3	-0.1	69.7*	-2.3	-6.0	-0.1
COCCN(C(=O)CCC(=O)Nc1cc(C)on1)C(C(=O)NC1CCCC1)c1ccc(C)cc1 (stereo not given)	3.6	6.8	11.7	-2.6	-1.3	-3.7	0.9	0.6
Cc1cccc(NC(=O)CN(C)S(=O)(=O)c2ccc(-c3ccc(=O)[nH]n3)s2)c1C	5.2	0.3	-8.9	5.0	2.6	-3.5	-5.9	0.5
CSCCC1C(C#N)=C(N)Oc2n[nH]c(-c3cccs3)c21 (stereo not given)	7.5	4.7	8.5	-10.9	-9.8	-0.4	0.3	1.3
CCN(CC(=O)Nc1ccc(NC(C)=O)cc1)C(=O)/C=C/c1cn(-c2ccccc2)nc1-c1ccc(F)cc1	6.4	-12.2	0.7	x	-1.8	-4.2	-3.1	0.5
COc1cc(/C=N/NC(=O)C(=O)NCc2ccco2)ccc1O	1.5	x	-8.8	1.6	-9.0	4.6	-1.5	0.8
C=C1CC(C(=O)N/N=C/c2ccccc2)C1	-6.2	x	-4.9	-6.6	-25.3	-1.6	-4.2	0.0
O=[N+]([O-])c1ccc(CSc2ncnc3c2ncn3[C@@H]2O[C@H](CO)[C@@H](O)[C@H]2O)cc1	-6.4	0.2	x	-3.9	x	-3.2	x	1.2
Cc1cc(C)c2c3c(sc2n1)C(=O)N(Cc1ccccc1)CC(=O)N3	-7.1	-3.0	4.0	6.1	-6.9	-1.1	u	0.2
Cc1cccc(C(=O)Nc2ccccc2-c2nnn(CC(=O)Nc3ccc4c(c3)OCCO4)n2)c1	5.5	-8.5	28.6	7.7	14.9	2.0	0.4	0.0
C=CCn1c(=O)c2ccccc2n2c(SCc3nc(N)nc(Nc4ccccc4C)n3)nnc12	-9.6	-0.8	u	0.2	3.4	-1.1	1.4	-0.4
Cc1ccc(C)c(N(C)C(=O)CCS(=O)(=O)c2cccc3nonc23)c1	9.3	0.7	8.1	-3.1	13.6	-0.2	5.5	0.2
CNC(=O)CN(C1CCCCC1)S(=O)(=O)c1ccc(OC)c(Cl)c1	-3.6	1.4	0.3	-16.4	-7.2	-2.4	2.9	0.8
O=C(CSc1nnc(-c2ccc(Cl)cc2)o1)N1CCOCC1	-14.6	0.7	0.6	4.7	1.3	-7.0	0.7	0.8
O=C(NCC(=O)N1CCCC(C(F)(F)F)C1)c1ccc(Br)o1 (stereo not given)	-4.1	2.3	-2.9	-3.3	-8.5	-0.9	x	0.3
CC(C)(C)OC(=O)NCCCCCc1nnc(SCc2cccc(F)c2)o1	-0.9	5.5	1.7	x	6.7	3.7	-3.9	-0.5
CCOC(=O)c1cc(CC)sc1NC(=O)COC(=O)c1cnccn1	9.0	-0.1	x	1.7	2.1	2.8	-2.8	-0.3
NS(=O)(=O)c1ccc(CCNC(=O)COC(=O)Cc2ccc([N+](=O)[O-])cc2)cc1	6.4	2.5	x	-2.5	x	0.1	x	0.2
CN(C(=O)COC(=O)CN1C(=O)c2cccc([N+](=O)[O-])c2C1=O)c1ccccc1	4.8	0.3	x	-3.7	x	2.0	x	0.1
Nc1nc(SCC(=O)C23CC4CC(CC(C4)C2)C3)n[nH]1	0.3	-0.1	-5.5	-1.9	4.3	6.6	u	-0.4
CC(C)CCN=Cc1c(O)n(-c2ccccc2)c(=O)c2ccccc12	-18.0	3.3	u	-0.6	14.0	12.0	-4.5	0.9
Cc1ccc(-c2ocnc2C(=O)Nc2ccccc2NC(=O)c2ccccn2)cc1	-5.8	3.0	-3.9	-7.7	14.1	2.9	-1.0	0.6
COc1cccc(NC(=O)c2ccc3c(O)c(S(=O)(=O)c4ccccc4)c(=O)[nH]c3c2)c1	-6.8	4.7	-3.4	x	-1.0	5.4	1.8	-1.0
CCOc1ccc(-n2cc(-c3ccccc3)c3c(=S)nc[nH]c32)cc1	11.7	4.9	0.5	11.7	41.8	-4.0	1.4	1.4
COc1cccc(CN(C)CC2CCCN(CCc3ccc(Cl)cc3)C2)c1OC (stereo not given)	13.1	0.2	-13.1	x	40.1	-4.2	6.5	1.1
O=C(c1ccco1)N1CCN(Cc2cc(=O)c(OCc3c(F)cccc3Cl)co2)CC1	-1.8	4.3	0.2	1.3	7.6	-3.0	1.8	0.6
CCN(CC(=O)NCc1ccc(Cl)cc1)C(=O)c1cc(OC)cc(OC)c1	1.7	1.6	15.1	-3.8	-3.0	5.5	1.2	0.7
O=C(CCl)N1CCN(CC(=O)N2CCCC2)CC1	-7.1	6.4	4.2	x	-9.8	-2.5	2.1	-0.7
O=C1CCCN1c1ncc(S(=O)(=O)c2ccc([N+](=O)[O-])cc2)s1	0.0	1.5	2.1	8.9	7.6	-0.5	1.5	0.1
CCOC(=O)Cc1csc(NC(=O)CSc2nc(C)cc(C)n2)n1	-4.1	0.2	x	-0.2	x	3.1	x	0.6
COc1cccc(C2NC(=O)c3sc(=S)n(-c4ccccc4)c3N2)c1 (stereo not given)	-1.4	0.1	-0.2	1.9	-9.0	3.6	3.3	0.3
Cc1ccc(-n2nnnc2SCC(=O)N2CCc3ccccc3C2)c(C)c1	-2.2	4.8	-4.8	4.0	-1.5	6.4	3.1	-0.5
COc1ccc(Br)cc1CN(C)CC(=O)Nc1ccccc1Cl	-2.8	7.1	1.0	6.2	1.9	0.0	u	1.1
Cc1nn(C)c(C)c1NC(=S)Nc1ccc(S(=O)(=O)Nc2ncccn2)cc1	-0.2	1.9	-5.0	-1.6	-15.7	1.0	1.5	0.4
C=C[C@@H]1c2ccccc2N(S(=O)(=O)c2ccc(C)cc2)[C@H](c2ccc(C(=O)OC)cc2)C1(C#N)C#N	3.4	1.1	x	6.7	x	-2.1	x	-1.0
CC(C)=CCc1c(-c2ccc(O)cc2O)oc2cc3c(c(O)c2c1=O)C=CC(C)(C)O3	x	4.9	-6.8	8.4	-5.4	-0.7	9.9	0.0
N#Cc1ccc(NC(=O)COC(=O)c2cccnc2Cl)cc1	1.7	-1.2	x	-4.7	x	-13.2	x	0.2
O=C(CN1CCCC1=O)NC1(C(F)(F)F)NC(=O)N(Cc2ccccc2)C1=O (stereo not given)	1.5	2.3	u	-8.3	-9.0	3.9	4.5	-0.5
O=C(C1CC1)N1N=C(C2CCCCC2)CC1(O)C(F)(F)F (stereo not given)	1.5	1.4	-12.4	-5.4	-2.1	-17.2	-0.4	0.1
CCn1c2ccccc2c2cc(NC(=O)c3ccco3)ccc21	30.4	1.3	28.9	7.8	46.5	-1.8	-2.2	-0.2
Cc1cc(NC(=O)CSc2nnc(-c3cccs3)n2N)no1	-18.6	2.7	-1.3	x	-8.5	2.8	u	-0.1
CNC(=O)c1ccsc1NC(=O)c1ccc(S(=O)(=O)N2CCc3ccccc32)cc1	14.2	x	2.9	3.3	5.3	-4.1	u	-0.5
COc1ccc(CN2C(=O)C(=O)N(CC(N)=O)C2=O)cc1	7.4	0.5	2.4	x	-1.1	0.2	3.9	-0.5
Cc1cc(-c2ccccc2)nc(N/N=C/c2cccnc2)n1	1.9	x	-3.5	5.5	-6.0	1.6	0.9	u
CCN(C(=O)CSc1nnc(-c2c[nH]c3ccccc23)o1)C1CCS(=O)(=O)C1 (stereo not given)	-1.5	-1.3	-1.4	-2.3	-13.8	4.0	-2.4	0.7
COc1cccc(CN(C(=O)c2ccccc2Br)C2CCS(=O)(=O)C2)c1 (stereo not given)	-2.6	3.5	-11.6	-0.8	-5.2	6.3	2.7	0.1
O=C1C(C2=NC(c3ccccn3)C3C(=O)N(c4ccc(OC(F)(F)F)cc4)C(=O)C23)=C(O)c2ccccc21 (stereo not given)	1.1	-81.9	-0.8	80.8*	-4.2	-2.3	4.0	-0.3
CC(CCn1cccn1)NC(=O)CCc1nnc(CCc2ccccc2)o1 (stereo not given)	26.2	-0.8	11.4	1.0	-6.6	5.3	1.9	0.5
OCc1cc(Br)ccc1OCc1nc2ccccc2s1	0.2	5.7	-1.1	-0.2	20.5	2.8	-3.9	-4.8
COC(=O)c1sc(S(=O)(=O)NCCCN(C)C)c(C(=O)OC)c1C	4.8	3.2	-0.4	-0.4	-8.6	-1.6	2.7	0.5
Cc1ccc2c(c1)/C(=C/c1ccccc1C)C(=O)N2	-9.6	7.8	-24.6	x	20.7	3.5	-0.9	0.7
CC(C)c1ccc(NC(=O)C(c2ccccc2)N(Cc2ccco2)C(=O)CC2NC(=O)NC2=O)cc1 (stereo not given)	-1.9	4.8	12.5	-1.4	0.4	-0.3	5.0	-0.1

Structures listed so far with bromine, in the order listed:
SMILES	Beta2AR agonist	UCH37 DUB inh	Calb FLC	Beta cell apopt	T cruzi repl	LANA-H2A inh	RanGTP-Imp inh	A1 inh
O=C(NCC(=O)N1CCCC(C(F)(F)F)C1)c1ccc(Br)o1 (stereo not given)	-4.1	2.3	-2.9	-3.3	-8.5	-0.9	x	0.3
COc1ccc(Br)cc1CN(C)CC(=O)Nc1ccccc1Cl	-2.8	7.1	1.0	6.2	1.9	0.0	u	1.1
COc1cccc(CN(C(=O)c2ccccc2Br)C2CCS(=O)(=O)C2)c1 (stereo not given)	-2.6	3.5	-11.6	-0.8	-5.2	6.3	2.7	0.1
OCc1cc(Br)ccc1OCc1nc2ccccc2s1	0.2	5.7	-1.1	-0.2	20.5	2.8	-3.9	-4.8

Screens from PubChem BioAssay.

This is a random part of the collection; any-hit rate near 4.3%.
